# Assay outcomes as filed in PubChem BioAssay.
# A1 inh: caspase 3/7 activation in MEF A1-2A-BIM cells, primary screen, A1 inhibitor project, cell-based, luminescence, HTS. Caspase-Glo 3/7 luminescence, 3 h; percent of clofoctol response, vehicle zero. caspase activation, % (concentration not given with the values). 330,000 compounds, 0.066% hits. AID 2462, 2010;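 active = over half of replicate activation scores above 10%, or exactly half above 10 with the replicate mean above 10; inconclusive = replicate mean below 10 yet half the replicates above 10; inactive = over half of replicates below 10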;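 note: wells of about 30 µL received 50 nL stock; many hits fall short of the cut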
# Calb FLC: C. albicans growth inhibition with fluconazole, primary screen, CaCi-2 strain, Alamar Blue fluorescence; C. albicans CaCi-2 (fluconazole-resistant clinical isolate) + fluconazole, 48 h; growth inhibition, % (no concentration beside the values); 300,000 compounds, 0.57% hits; AID 1979, 2009;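 active = most replicates above 75%; inconclusive = exactly half above 75%; inactive = most below 75%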;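 note: all wells also contain fluconazole at 8 µg/ml as a sub-toxic cotreatment; 0% = median of DMSO wells and 100% = median of geldanamycin control wells; wells of about 8 µL received 7.5 nL stock; the first replicate is given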
# Beta apoptosis: inhibitors of cytokine-induced beta cell apoptosis, primary screen, luminescence. INS-1E cytokine-induced death, ATP luminescence, 48 h; percent of positive-control rescue, neutral wells zero. protection from apoptosis, % (no concentration beside the values). 300,000 compounds, 0.8% hits. AID 435005, 2010;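 active = all replicates at 75% or more, or half of them and the mean; inconclusive = half reach 75% but not the mean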;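 note: 0% = cytokine-treated negative control wells and 100% = positive control rescue; higher means more ATP so stronger rescue from cytokine killing; wells of about 40 µL received 100 nL stock; the first replicate is given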
# UCH37 DUB inh: inhibitors of human UCH37 deubiquitinase, primary screen, biochemical, Ub-AMC cleavage, fluorescence | Ubiquitin carboxyl-terminal hydrolase isozyme L5 (Homo sapiens), Q9Y5K5 | purified proteasome/UCH37 | inhibition, % (concentration not given with the values) | 330,000 compounds, 0.33% hits | AID 588478, 2011;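 active = mean of two replicates above 20%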;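 note: 0% = compound-free wells with enzyme and 100% = wells lacking proteasome; stock transfer was 100 nL into about 20 µL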
#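 Material: Human UCH37 enzyme supplied as purified proteasome complex | Schedule: 30 min preincubation with enzyme, 25 min cleavage at room temperature | Detection: AMC fluorescence 355/460 nm | Measure: % inhibition of Ub-AMC cleavage fluorescence | Controls: Wells without proteasome as full block, compound-free enzyme plus substrate as uninhibited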
# B2AR ag: beta2AR agonists driving receptor internalization, primary screen, cell-based, FAP fluorogen, flow cytometry; Am2.2-beta2AR cells; reference of the scale not given here; AID 504454, 2011; response, % (no concentration beside the values); 340,000 compounds, 0.43% hits; Beta-2 adrenergic receptor (Homo sapiens), P07550;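 active = response above a set limit, near 3 SD of response in nonfluorescent compounds, cut at about 42% in these data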;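 note: stock transfer was 100 nL into about 11 µL; a reference agonist was the positive control; negative values mostly stem from fluorescent compounds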
# T cruzi repl: inhibitors of intracellular T. cruzi growth, primary screen, luminescence, NIH3T3 host cells | T. cruzi beta-gal in NIH3T3, 90 h | 300,000 compounds, 1.4% hits | inhibition, % (no concentration beside the values) | AID 1885, 2009;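 active = mean inhibition across valid replicates above about 55%, limit read from the data; inconclusive = mean below that limit but half or more replicates reach it; inactive = mean below it, under half of replicates reach it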;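 note: signal also drops with host cell toxicity which is not excluded here; 0% = plate median of DMSO wells and 100% = zero luminescence signal; higher percent means less beta-gal luminescence so fewer parasites; stock transfer was 50 nL into about 50 µL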
# LANA-H2B inh: blockers of LANA interaction with H2A/H2B – biochemical, FP readout, HTS, primary screen; inhibition, % (no concentration beside the values); Protein LANA1 (Human herpesvirus 8 type P (isolate GK18)), Q9QR71; cell-free LANA-H2A/H2B peptide, fluorescence polarization; 320,000 compounds, 0.6% hits; in the data active = inhibition mostly above about 10%, no sharp cut-off; inactive = mostly below about 6.7%;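 note: stock transfer was 7.5 nL into about 10 µL; 0% = median of vehicle wells and 100% = median of positive control wells; one replicate is shown; the record names a cut of 25% in any replicate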
# Target sequence (Q9QR71 whole entry, looked up): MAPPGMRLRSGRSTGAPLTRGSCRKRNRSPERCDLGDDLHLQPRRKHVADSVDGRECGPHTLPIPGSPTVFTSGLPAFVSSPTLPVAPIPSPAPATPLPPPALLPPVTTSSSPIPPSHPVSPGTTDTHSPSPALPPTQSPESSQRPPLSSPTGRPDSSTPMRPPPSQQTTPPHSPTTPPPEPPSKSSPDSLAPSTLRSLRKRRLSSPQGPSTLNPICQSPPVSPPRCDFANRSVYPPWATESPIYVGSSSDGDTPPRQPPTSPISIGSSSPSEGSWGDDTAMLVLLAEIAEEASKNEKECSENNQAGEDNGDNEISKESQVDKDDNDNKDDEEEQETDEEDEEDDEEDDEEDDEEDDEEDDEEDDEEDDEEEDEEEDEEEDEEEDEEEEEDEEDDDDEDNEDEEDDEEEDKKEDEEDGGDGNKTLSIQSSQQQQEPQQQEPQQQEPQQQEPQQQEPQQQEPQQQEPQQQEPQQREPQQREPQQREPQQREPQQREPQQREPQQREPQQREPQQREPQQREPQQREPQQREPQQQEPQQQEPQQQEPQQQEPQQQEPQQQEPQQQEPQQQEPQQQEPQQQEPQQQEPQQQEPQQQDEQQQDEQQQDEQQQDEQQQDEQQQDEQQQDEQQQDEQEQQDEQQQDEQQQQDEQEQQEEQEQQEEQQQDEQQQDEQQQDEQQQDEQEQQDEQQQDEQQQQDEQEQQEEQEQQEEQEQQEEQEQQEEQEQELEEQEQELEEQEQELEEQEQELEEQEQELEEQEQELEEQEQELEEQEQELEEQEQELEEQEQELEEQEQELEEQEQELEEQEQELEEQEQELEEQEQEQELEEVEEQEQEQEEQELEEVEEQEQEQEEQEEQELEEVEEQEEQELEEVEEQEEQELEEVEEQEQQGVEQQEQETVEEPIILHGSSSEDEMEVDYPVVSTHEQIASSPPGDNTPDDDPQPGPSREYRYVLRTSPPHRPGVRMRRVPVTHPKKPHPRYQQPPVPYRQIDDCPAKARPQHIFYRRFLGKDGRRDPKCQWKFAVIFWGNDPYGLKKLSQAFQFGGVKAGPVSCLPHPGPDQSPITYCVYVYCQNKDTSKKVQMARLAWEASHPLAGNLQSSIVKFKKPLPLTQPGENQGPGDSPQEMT
# RanGTP-Imp inh: inhibitors of RanGTP-importin-beta interaction, primary screen, biochemical, FRET, CFP-Ran, YFP-importin-beta, homogeneous; Ran GTPase (GTP-bound) - importin-beta complex; cell-free CFP-Ran/YFP-importin-beta FRET ratio; inhibition, % (concentration not given with the values); 300,000 compounds, 1.1% hits;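 active = most replicates above 15%; inconclusive = exactly half above 15%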;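 note: 0% = DMSO wells and 100% = Ran loaded with GDP instead of GTP; wells of about 40 µL received 100 nL stock; the first replicate is given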
# * = called active by the depositor; ? = inconclusive; . = no result given.
SMILES,A1 inh,Calb FLC,Beta apoptosis,UCH37 DUB inh,B2AR ag,T cruzi repl,LANA-H2B inh,RanGTP-Imp inh
CC[C@H]1OC(=O)C[C@@H](O)[C@H](C)[C@@H](O[C@@H]2O[C@H](C)C[C@H](N(C)C)[C@H]2O)[C@@H](CC=O)C[C@@H](C)C(=O)C=C[C@]2(C)O[C@H]2[C@@H]1C,-0.1,.,.,.,.,12.8,-2.2,-1.2
Cc1cccc(N/C(N)=N/c2nc(CSc3ccc(Cl)cc3)cc(=O)[nH]2)c1,0.4,-6.1,12.7,1.8,.,-29.0,0.9,0.5
O=C(c1cnc2sccn2c1=O)N1CCCc2ccccc21,0.2,-0.8,-2.8,7.9,-5.9,-2.7,5.1,-4.4
COc1ccc(-c2nnc(NC(=O)c3ccccc3[N+](=O)[O-])s2)c(OC)c1,-0.2,-3.1,1.5,5.6,4.8,11.4,0.9,3.2
CCCn1c(SCC(=O)N2c3ccccc3CC2C)nnc1-c1ccco1 (configuration not stated),0.0,-3.1,-6.2,2.3,-12.0,8.7,1.2,-4.6
Cc1ccnc(N(C(=O)Nc2ccccc2)C2=NCC(C)(C)S2)c1,-2.3,-1.6,-3.9,3.8,-1.5,0.1,-1.9,5.2
COc1ccc(CNC(=O)C/C(C)=N/NC(=O)COc2ccccc2)cc1,0.4,-26.6,3.8,.,0.4,-6.5,4.5,-1.6
CC(C)CNS(=O)(=O)c1ccc(CCC(=O)Nc2ccc3c(c2)OCCO3)cc1,0.0,-4.3,-2.0,0.7,2.1,-2.7,-2.4,-0.3
Cc1ccsc1/C=C1\SC(=S)N(CC2CCCO2)C1=O (configuration not stated),-2.9,5.7,-3.1,2.0,-7.5,-6.9,2.2,-1.7
CC(=O)c1cccc(NC(=O)CNC(=O)c2sc3ccccc3c2Cl)c1,-0.4,9.2,.,0.6,6.8,2.4,-5.4,0.5
CCN(CC(=O)NCc1ccc(F)cc1)C(=O)C(C)Oc1cccc(Cl)c1 (configuration not stated),-0.5,.,-4.2,2.8,-5.8,.,0.3,.
O=C(CCNC(=O)c1ccc([N+](=O)[O-])cc1)Nc1ccc(F)cc1F,0.5,9.3,0.4,3.4,20.2,-4.4,3.1,3.3
O=C(NCc1csc2ccc(Cl)cc12)Nc1ccccc1,0.8,17.2,0.1,6.9,-3.7,-0.1,2.2,0.5
O=C(CCN1CCN(c2ccccc2)CC1)NNC(=O)c1cccc2ccccc12,0.3,-7.0,5.8,-0.2,-2.3,-5.7,-1.1,4.0
COc1ccc(S(=O)(=O)NCC(=O)N(CC(=O)NC(C)(C)C)Cc2cccs2)cc1,1.2,41.7,3.6,6.2,7.2,-1.9,5.4,.
S=c1[nH]nc(COc2ccccc2)n1/N=C/c1ccc(Cl)c(Cl)c1,0.9,-10.4,.,.,15.1,-7.3,0.6,2.5
CC(C(=O)NN)c1ccc([N+](=O)[O-])cc1 (configuration not stated),0.5,-4.7,-1.8,3.7,2.8,-13.4,-0.4,-4.5
NNC(=O)CSc1c(-c2ccccc2)c2cc(Cl)ccc2[nH]c1=O,0.1,-1.5,2.8,5.2,1.4,-4.4,1.2,3.3
O=S(=O)(NC1=NCCC1)c1ccc(F)cc1,0.6,-0.2,-1.4,-6.5,0.1,-6.6,3.7,-0.2
COc1ccc(S(=O)(=O)N(C)CC(=O)Nc2cccc(C(C)=O)c2)cc1C,0.9,-0.4,-6.4,2.2,4.2,-6.7,4.1,3.1
COc1ccc(C2=NS(=O)(=O)N(C)C(C(=O)NC3CCCC3)=C2)cc1OC,1.3,3.2,2.4,6.4,4.8,1.2,-3.1,1.7
CNC[C@H]1Oc2c(NS(=O)(=O)c3ccc(F)cc3)cccc2C(=O)N([C@H](C)CO)C[C@@H]1C,-0.3,.,-6.3,-1.5,9.5,.,-1.1,.
CC(NC(=O)c1cccs1)c1n[nH]c(=S)n1C (configuration not stated),-1.5,3.5,-1.8,-1.8,1.6,-3.0,-1.8,-2.2
O=C(COc1ccc([N+](=O)[O-])cc1)N1CCc2ccccc2C1,-0.1,6.0,-0.3,0.6,0.5,-9.2,-1.8,-4.4
Cc1ccc(N(CC(=O)NCc2ccco2)C(=O)CCC(=O)Nc2nccs2)cc1C,-0.5,-3.6,-4.0,0.7,-4.5,3.9,-12.8,2.9
CC1(C)C=C2[C@H]3CC[C@@H]4[C@@]5(C)CCC(=O)C(C)(C)[C@@H]5CC[C@@]4(C)[C@]3(C)CC[C@@]2(C(=O)O)CC1,0.8,7.4,2.1,.,6.5,1.5,0.3,-1.2
CC(NS(=O)(=O)c1cccc(S(=O)(=O)c2ccccc2)c1)C(=O)O (configuration not stated),0.7,2.2,-6.8,1.0,-2.4,-4.3,-4.9,-4.6
Cn1c(=O)c2c(n(C)c1=O)=NC1(CCCCC1)N=2,0.9,0.9,-1.5,0.8,6.9,-16.4,1.7,2.4
CCSc1nnc2n1C(C)(C)Cc1ccccc1-2,0.5,-3.6,6.0,-0.6,-2.2,1.9,5.9,?
O=C(CSc1cn[nH]n1)Nc1ccc(O)c(C(=O)O)c1,0.3,22.7,-6.4,-26.8,3.2,1.4,0.9,0.9
O=C(C(=O)c1cccnc1)c1cccnc1,-0.7,-10.0,-1.2,5.2,1.8,-19.2,-2.1,26.1
Cc1cc(C)n2nc(C)c(Br)c2n1,-0.1,10.7,-5.5,-0.3,5.5,-11.5,-2.5,0.0
CCc1nc(C#N)c(N2CCCCC2)o1,-0.5,-39.9,-9.5,1.6,-3.3,-20.4,-2.7,-5.1
C=CCCCCCCCCC(=O)NN,0.0,-33.4,-3.2,0.2,-0.5,-8.4,1.3,-0.2
Cc1nc(SCC(=O)NC(=O)NC(C)(C)C)nc(C)c1C,-0.2,-9.4,-5.6,0.5,-11.7,-1.6,7.5,1.1
COC(C(=O)Nc1ccnn1C1CCN(Cc2ccc(C)o2)CC1)c1ccccc1 (configuration not stated),-0.3,25.2,-7.2,-1.0,3.6,-4.8,-3.3,-0.6
O=c1ccnc(SCCc2ccccc2)[nH]1,0.3,20.9,-3.5,2.2,-0.3,-21.2,-4.5,-0.1
CC(=O)Nc1ccc(OCc2cnc(Cl)s2)cc1,0.6,-2.1,-6.9,1.8,3.7,-6.6,1.4,0.6
CCOc1ccc(N/C=C/C(=O)c2ccc(OC)c(OC)c2)cc1,-3.7,-8.2,.,-11.1,3.1,22.9,-0.3,-6.1
O=C(Nc1c(F)cc(F)cc1Br)c1cc2nc(C(F)F)cc(C(F)F)n2n1,-0.1,-1.3,.,-3.5,-4.1,3.8,-0.4,2.3
COc1ccccc1OC(C)C(=O)Nc1ccccc1C(=O)NCc1cccnc1 (configuration not stated),0.1,-1.4,-0.6,2.5,-1.3,-7.0,5.9,4.4
CC1(C)CC(NC(=S)NC(=O)c2cc(Br)ccc2Cl)CC(C)(C)N1,-1.9,.,12.0,0.6,1.8,.,-3.0,.
CCCCNC(=O)CCCn1c(=S)[nH]c2cc3c(cc2c1=O)OCO3,0.0,2.3,-2.8,7.2,-2.7,-12.9,-3.9,-1.6
Cc1ccc(S(=O)(=O)N(C)C)cc1NC(=O)COC(=O)C1CC(=O)N(c2ccc3c(c2)OCCO3)C1 (configuration not stated),-0.9,3.2,1.5,-1.4,22.9,-5.8,-10.3,3.0
NC(=O)NC(CC(=O)NCCCc1ccccc1)c1ccccc1Cl (configuration not stated),-0.8,-0.6,-2.8,4.3,10.1,-9.2,3.6,-1.9
C/C(=N/NC(=O)c1cc(-c2cccc([N+](=O)[O-])c2)n[nH]1)c1cccc(O)c1,-0.7,0.3,-5.2,.,1.9,-12.2,14.8*,3.8
Cc1c(C(=O)N2CCCC2)sc(NC(=O)c2cccc(Cl)c2)c1C#N,-1.1,38.2,.,7.7,-5.0,0.9,0.8,4.3
O=C(Nc1nc(=O)[nH]s1)c1ccccc1,0.8,1.9,-5.1,3.0,-5.3,-8.7,-2.3,-1.2
COc1cc(OC)cc(-c2oc(=O)c3cc(OC)c(OC)cc3c2/C=C/c2ccc(F)cc2)c1,-1.2,.,15.3,-1.5,-1.5,.,2.9,.
O=C(c1ccc(-c2ccccc2)c(F)c1)C1CCCN(C(=O)c2cncs2)C1 (configuration not stated),0.8,-1.3,-5.2,3.5,-4.2,34.5,14.4*,6.5
COc1cc(-c2nc3n(n2)C(c2ccncc2)C2=C(CCCC2=O)N3)cc(OC)c1OC (configuration not stated),0.3,22.4,-3.0,5.3,3.8,-6.3,1.5,5.8
CCN(CCO)Cc1cn[nH]c1-c1ccc(C)c(C)c1,2.2,-8.0,0.2,0.8,3.8,2.1,-0.5,?
O=C(Nc1nc(-c2ccncc2)cs1)C1c2ccccc2Oc2ccccc21,-0.5,8.1,-1.1,4.5,10.5,26.1,-5.3,3.7
O=C(COC(=O)c1ccc2c(c1)OCCO2)NCCc1ccccc1,-0.2,.,-2.4,3.0,0.8,.,-0.7,.
CCOC(=O)Cn1nc(C)c2c1CCCC2=O,0.0,-12.0,-1.5,-1.2,2.4,-4.1,6.5,-0.7
COc1cccc(C2c3[nH]c4ccccc4c3C[C@H]3C(=O)N(C4CC4)CC(=O)N23)c1 (some centres not stated),-0.8,-2.3,-5.8,3.9,10.1,-4.2,2.1,-2.3
O=C(CN1C(=O)CCC1=O)Nc1nc(-c2ccc3ccccc3c2)cs1,0.1,8.7,-12.5,2.7,0.0,-15.6,-8.1,-1.2
O=C(CSCc1ccc(F)cc1)Nc1ccccc1,-0.6,8.0,2.8,2.5,-0.1,-6.1,-2.4,2.6
O=C(NCc1ccccc1)c1ccc(NC(=O)c2ccco2)cc1,-2.4,7.9,1.2,2.5,0.7,10.8,4.4,-1.3
O=C(Cn1c(-c2ccco2)nc2ccccc21)N1CCCCC1,0.0,-6.5,-6.1,-1.7,0.3,-3.4,0.9,-0.9
# Later entries
SMILES,A1 inh,Calb FLC,Beta apoptosis,UCH37 DUB inh,B2AR ag,T cruzi repl,LANA-H2B inh,RanGTP-Imp inh
COc1ccccc1NC(=O)c1ccc(NS(=O)(=O)c2c(C)noc2C)cc1,-0.3,-4.6,1.1,1.3,3.5,-15.1,-2.0,-0.6
Cc1ccc2oc(C(=O)N(C)Cc3ccc(C)o3)c(C)c2c1,-0.5,-9.1,-13.4,5.9,30.7,-9.4,-7.8,2.9
Cc1ccc2c(CC(=O)Nc3ccc(N4CCN(C)CC4)cc3C)coc2c1,0.0,28.8,-1.8,-1.7,7.1,23.9,0.4,-0.4
Cc1cc(Nc2cccc(Cl)c2)n2ncnc2n1,0.3,6.2,-1.1,3.3,-2.9,-2.8,4.0,9.2
O=C(COC(=O)c1cccc(O)c1)Nc1ccc(N2CCOCC2)cc1,0.9,.,6.1,3.2,-5.4,.,3.5,.
